High-throughput results as filed in PubChem BioAssay.
Arbovirus inh: antivirals against arbovirus infection, primary screen, cell-based, full library, 10K replicate subset. arbovirus infection cell-based antiviral screen. inhibition, % at 10 µM. hit rate 0.37% among 200,000;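 active means inhibition from about 30%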;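 further: bluetongue infection of BSR cells; cell survival read as ATP light after 72 h; 0% = infected wells without compound and 100% = uninfected wells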
YopH PTP inh: YopH tyrosine phosphatase inhibitors, primary screen, biochemical, fluorescence Ex485/Em525; inhibition, %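 (about 10 µM by stock and volumes)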; AID 898, 2007; hit rate 0.16% among 140,000; YopH tyrosine phosphatase [Yersinia enterocolitica];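 active means inhibition of 50% or more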;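 further: controls were vehicle for no effect and minimum signal wells for full effect; inactives centre near -20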
RecA splice inh: Mtb RecA intein splicing inhibitors, primary screen, biochemical, fluorescence, HTS | Protein RecA (Mycobacterium tuberculosis (strain ATCC 25618 / H37Rv)), P9WHJ3 | cell-free RecA intein splicing | inhibition, %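 (about 9 µM by stock and volumes)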 | hit rate 0.75% among 290,000; in the data active means inhibition above about 30%; inconclusive means no clear call, values can overlap the other calls;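 further: 0% = vehicle wells and 100% = reference inhibitor control wells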
Target sequence (P9WHJ3 whole entry, looked up, canonical isoform): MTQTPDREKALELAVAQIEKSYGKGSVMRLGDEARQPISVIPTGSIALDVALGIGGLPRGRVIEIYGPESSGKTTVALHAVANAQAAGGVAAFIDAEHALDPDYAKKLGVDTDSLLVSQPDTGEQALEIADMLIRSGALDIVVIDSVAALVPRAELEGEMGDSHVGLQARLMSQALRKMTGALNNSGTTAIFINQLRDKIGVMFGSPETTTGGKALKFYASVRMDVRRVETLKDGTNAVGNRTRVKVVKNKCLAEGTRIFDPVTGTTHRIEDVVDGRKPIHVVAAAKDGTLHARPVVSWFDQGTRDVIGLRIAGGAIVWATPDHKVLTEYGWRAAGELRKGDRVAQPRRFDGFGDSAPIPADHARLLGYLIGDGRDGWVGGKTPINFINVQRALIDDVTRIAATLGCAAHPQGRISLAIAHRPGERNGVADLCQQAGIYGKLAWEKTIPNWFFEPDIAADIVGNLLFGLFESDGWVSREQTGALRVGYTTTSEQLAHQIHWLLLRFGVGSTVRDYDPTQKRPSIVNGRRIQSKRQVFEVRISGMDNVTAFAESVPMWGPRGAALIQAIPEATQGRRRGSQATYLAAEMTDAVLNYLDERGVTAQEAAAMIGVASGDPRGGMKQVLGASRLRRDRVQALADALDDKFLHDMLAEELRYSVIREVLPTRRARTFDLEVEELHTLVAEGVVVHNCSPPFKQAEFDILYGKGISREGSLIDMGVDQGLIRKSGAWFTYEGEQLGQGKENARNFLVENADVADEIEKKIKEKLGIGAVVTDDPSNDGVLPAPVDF
Mtb growth: M. tuberculosis H37Rv growth inhibitors, H37Rv strain (AID 1626); M. tuberculosis H37Rv growth inhibition; higher % means a stronger effect; hit rate 0.95% among 220,000; one-dose inhibition, % at 10 µM; IC50 in µM for titrated hits;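 active means confirmed in a dose series; inconclusive means inhibition above 80% but not taken into the dose series; inactive means below 80% or under 30% at every dose of the series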;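 further: bacteria incubated seven days before Alamar blue readout; 0% = bacteria only wells and 100% = bacteria with antibiotic wells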
Mtb bLac sens: beta-lactam sensitization of Mtb H37Rv, H37Rv; M. tuberculosis H37Rv growth with meropenem, percent inhibition; hits of this screen are not shown here; inhibition, % at 25 µM; hit rate 0.27% among 330,000; AID 434955, 2010;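 active means about 74% or more and at least 40 points above the plate without the antibiotic, then above 30% in a dose series; inconclusive means first-round hits that could not be retested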;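 further: growth measured after seven days incubation then overnight dye step; 0% = bacteria only wells and 100% = bacteria with antibiotic; twin plates without the antibiotic show which effects depend on it; some results filed as inactive read as strong as hits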
Arbovirus inh repeat: also measured in Arbovirus inh; calls as there; inhibition, %; measured here: 10K subset replicate screen; many hits read low in the repeat;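 first of two repeat runs on a subset; 0% = infected and 100% = uninfected wells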
* = called active by the depositor; ? = inconclusive; · = not tested or not shown. These rows are one share of the data; the hit share may differ from the screen's.

SMILES	Arbovirus inh	YopH PTP inh	RecA splice inh	Mtb growth	Mtb bLac sens	others
O=C1c2ccccc2NC(c2ccccc2Br)N1CCCN1CCOCC1 (stereo unspecified)	3	-52	-4.9	3%	1
Cc1cccc(NC(=S)NCc2ccncc2)c1C	8	-20	1.0	1%	-4
CCC(C)(C)NC(=O)C(c1cccn1C)N(C(=O)Cn1nnc2ccccc21)c1ccc(F)cc1 (stereo unspecified)	1	-34	-0.1	-5%	-2
COc1cc(/C=N/OCC(=O)Nc2cc(C)on2)ccc1OCc1ccccc1	-4	-6	-5.5	6%	7
O=C(O)CCCC(=O)NCCCCc1ccccc1	-1	-51	2.9	-9%	-5
COc1ccccc1Nc1nc(N2CCCC2)nc(N2CCOCC2)n1	·	·	2.0	9%	0
O=C(Cn1c(-c2ccc(Cl)cc2)noc1=O)N1CCN(c2ccccc2F)CC1	11	-38	13	2%	2
COC(=O)CSc1nc(C(C)C)nc2ccccc12	-5	6	11	-11%	-6
CC(C)(C)C(=O)Nc1ccc(N2CCN(S(C)(=O)=O)CC2)cc1	-6	·	7.3	6%	2
C=CCC1(CN2CCCCCC2=O)C(=O)NC(=O)NC1=O	10	4	1.1	-15%	-4
CCc1ccc(-c2nc(CN3CCCC(C(=O)NCCc4ccc(OC)c(OC)c4)C3)c(C)o2)cc1 (stereo unspecified)	-20	-18	1.2	0%	96
CCOC(=O)C(=CNc1ccc(C(O)(C(=O)OCC)C(F)(F)F)cc1C)C(=O)OCC (stereo unspecified)	4	-23	1.8	12%	71
CN(C)c1ccc(C(=O)n2nnc3ccccc32)cc1	-1	1	49*	-10%	9
N#CC1(NC(=O)COC(=O)CCCN=C2NS(=O)(=O)c3ccccc32)CCCCC1	·	·	-0.4	·	-10
CC(C)CN(CC(C)C)C(=O)C1C2c3ccccc3C(c3ccccc32)C1C(=O)O (stereo unspecified)	2	·	·	1%	·
COC(=O)CCCCC1SCC(NC(=O)OC)C1NC(=O)OC (stereo unspecified)	4	-3	-0.3	-5%	1
CCC(C)(C(=O)NC1CCCC1)N(C)C(=O)Cc1c[nH]c2ccccc12 (stereo unspecified)	6	·	2.9	6%	-10
COc1ccccc1CNC(=O)C1CCN(S(C)(=O)=O)CC1	4	33	6.0	2%	-7
NC(N)=NNC(=O)c1ccccc1Cl	0	-22	-5.6	-11%	-6
O=C(NCc1ccncc1)NC1CCCCC1	0	·	-2.8	-2%	-5

Arranged by SMILES length (rising): three of the compounds above
SMILES	Arbovirus inh	YopH PTP inh	RecA splice inh	Mtb growth	Mtb bLac sens	others
O=C(O)CCCC(=O)NCCCCc1ccccc1	-1	-51	2.9	-9%	-5
CCC(C)(C(=O)NC1CCCC1)N(C)C(=O)Cc1c[nH]c2ccccc12 (stereo unspecified)	6	·	2.9	6%	-10
O=C(Cn1c(-c2ccc(Cl)cc2)noc1=O)N1CCN(c2ccccc2F)CC1	11	-38	13	2%	2

Continuation:
SMILES	Arbovirus inh	YopH PTP inh	RecA splice inh	Mtb growth	Mtb bLac sens	others
O=C(c1cc2ccccc2o1)N(Cc1ccco1)Cc1cccs1	·	·	20	·	0
COc1cccc(C(=O)N(Cc2ccco2)Cc2cc3cccc(C)c3[nH]c2=O)c1	1	-26	2.0	-2%	-1
Cc1cccc(NC(=O)C2CCCN(C(=O)Nc3ccccc3)C2)c1C (stereo unspecified)	3	-12	0.7	-7%	-3
Cn1c(CNC(=O)c2ccccc2F)nnc1SCC(=O)Nc1nncs1	·	·	1.5	·	-6
O=C1C2C3C=CC(C2C(=O)N1CCO)C1C(=O)N(CCO)C(=O)C31 (stereo unspecified)	·	·	-0.5	·	2
NS(=O)(=O)c1ccc(NC(=S)NCc2cccs2)cc1	0	·	0.5	-5%	4
CC(NC(=O)C1CCCN(C(=O)N(C)C)C1)c1ccccc1 (stereo unspecified)	-4	-9	-1.0	2%	-11
O=C(COc1ccc2ccccc2c1Br)NCc1ccccn1	2	·	0.9	-3%	-1
O=C(Cn1cc(/C=N/NC(=O)c2ccccc2Br)c2ccccc21)Nc1ccc(F)cc1	12	-27	5.4	0%	-2
CCOc1ccc(NC(=O)CNc2ccc(C)cc2Cl)cc1	0	-15	-0.7	-2%	34
Cc1csc(NC(=O)c2cccc([N+](=O)[O-])c2C(=O)O)n1	·	·	-4.8	·	2
CN(C)c1nc(OCC(=O)NC(C)(C)C)nc(N(C)C)n1	3	-17	2.9	1%	-9
Cc1cc(C)nc(Sc2nc(C)nc3c2oc2ccccc23)n1	2	-50	12	7%	17
COc1ccc(COC(=O)C2=C(C)NC(=O)NC2c2ccc(OC)c(OC)c2)cc1 (stereo unspecified)	·	·	-0.5	·	0
O=C(CSc1nnnn1-c1ccc(F)cc1)NCc1cccs1	-2	·	-3.2	-4%	-6
Cc1ccc2oc(=O)n(CC(=O)OCCC(C)C)c2c1	·	·	1.0	-11%	-1
CCCCNC(=O)C1c2cc(OC)c(OC)cc2C(=O)N(C)C1c1ccc(OC)cc1 (stereo unspecified)	11	-5	0.3	-5%	-2	Arbovirus inh repeat=2
Cc1ccc(C)c(N2C(=O)C3C4C=CC(CC4)C3C2=O)c1 (stereo unspecified)	·	·	0.6	·	3
CCN1CCN(C2=C(NS(=O)(=O)c3ccc(NC(C)=O)cc3)C(=O)c3ccccc3C2=O)CC1	·	·	2.3	·	3
CC([NH2+][O-])C(C)(C)NO (stereo unspecified)	2	-1	-4.8	7%	-1
O=[N+]([O-])c1cccc(CN2CCCCCC2)c1	·	·	-0.9	·	6
O=C(NCC1CCCO1)C1CCCN1C(=O)Nc1ccc(Cl)cc1 (stereo unspecified)	3	·	6.0	-10%	0
CCCN(C(=O)COC(=O)c1cc(CC)c(C)s1)c1c(N)n(Cc2ccccc2)c(=O)[nH]c1=O	·	·	0.2	·	-5
CC(=O)c1cccc(NC(=O)c2ccc(NS(C)(=O)=O)cc2)c1	2	-1	-0.1	-1%	0
O=C(COC(=O)c1cnc(Cl)c(Cl)c1)NCc1ccco1	12	·	2.0	7%	-1
COc1ccc(-c2nc(CN3CCN(C(=O)c4ccco4)CC3)c(C)o2)cc1OC	·	·	-0.2	·	-6
COC(=O)CCC(=O)Nc1ccc(C)cc1OC(=O)CCC(=O)OC	0	-15	2.6	0%	-9
CCCCc1cn([C@@H](CCCCNC(=O)OC(C)(C)C)C(=O)N2CCN(C(=O)OC(C)(C)C)CC2)nn1	5	·	1.1	-19%	0
COc1ccc(NC(=O)CSc2nnc(-c3ccccn3)n2N)cc1	4	-45	-3.0	-5%	11	Arbovirus inh repeat=1
CCOc1cc(-c2cc(-c3ccccc3)nc(N)c2C#N)ccc1O	-15	-19	4.5	13%	11
COc1ccc(NC(=O)CSc2nc3c(c(=O)[nH]2)CCC3)cc1OC	1	-13	1.7	7%	9
CC(=O)Nc1ccc(N2C(=O)CC(Sc3nc4ccccc4s3)C2=O)cc1 (stereo unspecified)	-1	·	5.0	32%	0
Cc1ccc(NC(=O)/C(=C\c2cccnc2)NC(=O)c2ccco2)cc1	7	-33	0.2	-3%	-5
COc1ccc(-n2cc(CNCc3cnc4ccccn34)c(-c3cccc(F)c3)n2)cc1	-13	·	5.9	?	99
O=C(Cc1ccccc1)NCC(=O)N1CCN(c2ccccc2)CC1	·	·	-2.6	·	-6
CCOC(=O)c1cn(Cc2ccc(Br)cc2)nn1	-15	-14	-0.7	2%	-3
COc1ccc(NC(=O)CN(C)C(=O)c2ccc(NC3CC3)c([N+](=O)[O-])c2)cc1	·	·	2.6	·	-2
COc1ccc(COC(=O)C2=C(C)NC(=O)NC2c2ccccc2)cc1 (stereo unspecified)	·	·	1.2	·	8
Cc1cc(C)n2nc(SCc3nnc(SCc4ccccc4C)s3)nc2n1	-4	-12	3.7	6%	10
Clc1ccc(CSc2ncn(-c3ccccc3)n2)cc1	-12	2	4.4	-6%	1
CC(OC(=O)c1cccc(S(=O)(=O)N2CCCCC2)c1)C(=O)NC1CCCCC1C (stereo unspecified)	·	·	2.0	·	-6
CC1=C(C(=O)Nc2ccccc2)C(c2ccccc2)N2C(=O)CSC2=N1 (stereo unspecified)	1	-55	-1.7	-6%	-14
Cc1ccc(NS(=O)(=O)c2cccc3cccnc23)cc1Cl	·	·	0.3	·	2
Cc1ccc(C)c(NC(=O)C(=O)NCCCN2CCOCC2)c1	3	·	2.8	2%	2
COc1ccccc1NC(=O)CC(=O)CSc1nnc(-c2ccc(C)cc2)n1C	8	-28	-0.1	-4%	-1
Cc1cc(NC(=O)C(Cl)(Cl)Cl)no1	·	·	-3.2	-1%	-1
CCN(CC)S(=O)(=O)c1ccc(O)c(C(=O)OCC(=O)N2CCCC2)c1	·	·	0.3	·	-4
O=C(Cc1ccccc1)Nc1ccc(NC(=O)c2ccccc2)c(Cl)c1	·	·	0.9	·	-2
NC(=O)CC[C@H](NC(=O)[C@H](Cc1ccccc1)n1c(=O)[nH]c2ccccc2c1=O)C(=O)N1CCC[C@H]1C(=O)O	·	·	0.9	·	-3
CCOC(=O)c1sc(NC(=O)c2ccccc2F)c(C(N)=O)c1C	-10	-21	-1.5	2%	0
CCOC(=O)N1CCC2(CC1)C(C(=O)C13CC4CC(CC(C4)C1)C3)C2(C#N)C#N (stereo unspecified)	0	-41	17	3%	3
COc1ccc(C(C)NC(=O)C2CCCC2)cc1OC (stereo unspecified)	·	·	0.4	·	-10
O=C(O)Cn1ncc2ccccc2c1=O	-5	·	0.2	0%	5
CCN(CC)S(=O)(=O)c1cccc(C(=O)N/N=C2\CCCC(=O)C2)c1	·	·	-5.7	-10%	4
CCC(CC)NC(=O)Nc1ccccc1C(F)(F)F	·	·	-2.5	2%	-2
CCOc1ccc(CC2c3cc(OCC)c(OCC)cc3CCN2C(=O)CN2CCN(C)CC2)cc1OCC (stereo unspecified)	·	·	4.9	-7%	-1

Among those listed so far, these have an aryl methoxy group:
SMILES	Arbovirus inh	YopH PTP inh	RecA splice inh	Mtb growth	Mtb bLac sens	others
COc1cc(/C=N/OCC(=O)Nc2cc(C)on2)ccc1OCc1ccccc1	-4	-6	-5.5	6%	7
COc1ccccc1Nc1nc(N2CCCC2)nc(N2CCOCC2)n1	·	·	2.0	9%	0
CCc1ccc(-c2nc(CN3CCCC(C(=O)NCCc4ccc(OC)c(OC)c4)C3)c(C)o2)cc1 (stereo unspecified)	-20	-18	1.2	0%	96
COc1ccccc1CNC(=O)C1CCN(S(C)(=O)=O)CC1	4	33	6.0	2%	-7
COc1cccc(C(=O)N(Cc2ccco2)Cc2cc3cccc(C)c3[nH]c2=O)c1	1	-26	2.0	-2%	-1
COc1ccc(COC(=O)C2=C(C)NC(=O)NC2c2ccc(OC)c(OC)c2)cc1 (stereo unspecified)	·	·	-0.5	·	0
CCCCNC(=O)C1c2cc(OC)c(OC)cc2C(=O)N(C)C1c1ccc(OC)cc1 (stereo unspecified)	11	-5	0.3	-5%	-2	Arbovirus inh repeat=2
COc1ccc(-c2nc(CN3CCN(C(=O)c4ccco4)CC3)c(C)o2)cc1OC	·	·	-0.2	·	-6
COc1ccc(NC(=O)CSc2nnc(-c3ccccn3)n2N)cc1	4	-45	-3.0	-5%	11	Arbovirus inh repeat=1
COc1ccc(NC(=O)CSc2nc3c(c(=O)[nH]2)CCC3)cc1OC	1	-13	1.7	7%	9
COc1ccc(-n2cc(CNCc3cnc4ccccn34)c(-c3cccc(F)c3)n2)cc1	-13	·	5.9	?	99
COc1ccc(NC(=O)CN(C)C(=O)c2ccc(NC3CC3)c([N+](=O)[O-])c2)cc1	·	·	2.6	·	-2
COc1ccc(COC(=O)C2=C(C)NC(=O)NC2c2ccccc2)cc1 (stereo unspecified)	·	·	1.2	·	8
COc1ccccc1NC(=O)CC(=O)CSc1nnc(-c2ccc(C)cc2)n1C	8	-28	-0.1	-4%	-1
COc1ccc(C(C)NC(=O)C2CCCC2)cc1OC (stereo unspecified)	·	·	0.4	·	-10
